Screening results deposited in PubChem BioAssay by several laboratories.
MT1-MMP act inh: blocks activation of human MT1-MMP | P50281 | HT1080 RFP-PRO-GFP cells, GFP/RFP ratio fluorescence, overnight; percent of plate control window, DMSO zero | GFP/RFP ratio change, % at 20 µM | hit rate 0.061% among 360,000 | AID 651647;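 active = GFP/RFP ratio change of at least 30% with cell ATP level not reduced by more than half and red fluorescence within 50% of control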; note: strong numbers were not always called active
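Test system: HT1080 RFP-PRO-GFP cells; Benchmarks: DMSO and RFP-L50D-GFP cell wells; Timing: cells overnight before dosing, compound overnight, 37 °C, 5% CO2; Compound: one 20 µM compound dose with 1% DMSO; Read-out: GFP/RFP fluorescence ratio.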
PABP FP inh: blocks human PABP binding to poly(A) RNA; fluorescence polarization; inhibition, % at 35 µM; hit rate 1% among 290,000;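 active = 50% or more with normal probe brightness, or confirmed in later tests; inconclusive = above 50% with abnormal brightness, or retests that disagree; inactive = below 50% or failed in later tests; about a fifth of its hits are not listed in these tables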;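 note: calls also rest on retests at 20 µM and on dose response follow-up; controls were probe without protein and protein plus probe with vehicle; some compounds called inactive have numbers as strong as hits; many hits fall short of the cut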
Target sequence (P11940 whole entry, looked up): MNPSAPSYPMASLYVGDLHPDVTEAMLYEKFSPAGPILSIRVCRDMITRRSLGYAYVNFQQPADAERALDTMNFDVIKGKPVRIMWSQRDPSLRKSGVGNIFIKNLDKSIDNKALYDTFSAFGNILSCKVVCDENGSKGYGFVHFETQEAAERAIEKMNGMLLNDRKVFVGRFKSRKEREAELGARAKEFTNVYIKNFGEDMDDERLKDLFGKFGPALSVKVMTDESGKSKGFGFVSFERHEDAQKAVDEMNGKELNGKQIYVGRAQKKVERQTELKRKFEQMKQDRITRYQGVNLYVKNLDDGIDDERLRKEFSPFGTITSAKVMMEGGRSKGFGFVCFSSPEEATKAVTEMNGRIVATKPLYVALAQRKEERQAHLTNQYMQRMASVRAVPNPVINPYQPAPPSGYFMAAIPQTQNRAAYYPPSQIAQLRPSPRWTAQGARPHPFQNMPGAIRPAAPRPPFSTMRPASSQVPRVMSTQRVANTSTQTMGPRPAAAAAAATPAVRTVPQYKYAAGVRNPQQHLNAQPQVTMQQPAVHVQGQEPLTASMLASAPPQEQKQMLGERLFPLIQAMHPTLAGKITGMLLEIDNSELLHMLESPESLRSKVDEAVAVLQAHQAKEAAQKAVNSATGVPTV
UUG fidelity: alters start codon recognition fidelity in yeast | S. cerevisiae UUG-firefly luciferase reporter, luminescence/redox ratio | activity score, % at 18.7 µM | hit rate 0.13% among 350,000 | AID 602363;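 active = replicate mean at a twofold rise or more, about +100% in these data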;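 note: firefly luciferase made from a UUG start codon reports start codon fidelity; reporter light over untreated wells divided by growth signal over untreated wells; some hits fall short of that in this replicate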
Rce1 inh: blocks yeast Ras-converting enzyme | Q03530 | yeast membranes, quenched prenylated peptide cleavage fluorescence | calls only | hit rate 0.27% among 290,000 | AID 2563;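 active = fall in fluorescence gain of 50% or more versus controls, with final raw signal at or below 3038400; inconclusive = same 50% fall but final raw signal above 3038400; inactive = fall in fluorescence gain under 50%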;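 note: plate controls were neutral control wells for no effect and wells lacking membranes for full effect; tested at 10 µM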
Target sequence (Q03530 whole entry, looked up): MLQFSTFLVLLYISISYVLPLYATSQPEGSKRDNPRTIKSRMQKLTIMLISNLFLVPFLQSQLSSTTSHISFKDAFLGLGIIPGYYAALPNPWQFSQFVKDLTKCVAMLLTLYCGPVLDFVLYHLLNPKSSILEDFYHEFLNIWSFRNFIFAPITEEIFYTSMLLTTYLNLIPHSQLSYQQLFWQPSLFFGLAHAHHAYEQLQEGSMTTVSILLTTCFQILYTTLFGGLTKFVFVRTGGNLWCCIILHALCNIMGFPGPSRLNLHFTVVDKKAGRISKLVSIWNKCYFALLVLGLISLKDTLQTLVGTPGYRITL
eIF4H FP inh: inhibitors of RNA binding by human eIF4H | Q15056 | hit rate 0.94% among 290,000 | inhibition, % at 35 µM | eIF4H fluorescence polarization binding assay;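 active = 50% or more with normal probe brightness, or confirmed in later tests; inconclusive = above 50% with abnormal brightness, or retests that disagree; inactive = below 50% or failed in later tests; about a fifth of its hits are not listed in these tables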;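 note: calls also rest on retests at 20 µM and on dose response follow-up; 0% = protein and probe with vehicle and 100% = probe without protein; strong numbers were not always called active; many hits fall short of the cut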
CSC inhib: blocks cancer stem cells; cancer stem cell-like cells viability, luminescence; inhibition, % at 7.5 µM; hit rate 1.1% among 300,000; AID 2717;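 active = mean at 75% or more and at least half the replicates too; inconclusive = mean and replicates disagree; tested in HMLE shEcad cells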;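 note: 0% = median of negative and 100% = median of positive control wells; the first replicate is given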
HIV Env fusion: inhibitors of HIV Env-mediated cell fusion | HeLa-JRFL Env/CEM21 cell fusion, luciferase | inhibition, % at 12.3 µM | hit rate 1.1% among 360,000 | AID 651610;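 active = mean replicate inhibition score of at least 50 and every replicate individually at or above 50; inconclusive = only one of the two criteria met; inactive = mean below 50 and not all replicates reaching 50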;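 note: 0% = plate neutral controls and 100% = maraviroc near 300 nM; one replicate is shown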
MT1-MMP act inh RFP: also measured in MT1-MMP act inh; calls as there; RFP signal change, %; measured here: RFP expression control read;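 0 = vehicle wells; hits needed this value within 50% of zero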
Starred values were filed as active, the others as inactive; i = inactive; u = inconclusive; x = no result given; & = joins results of further samples.

Values run as follows: MT1-MMP act inh, MT1-MMP act inh RFP, PABP FP inh, UUG fidelity, Rce1 inh, eIF4H FP inh, CSC inhib, HIV Env fusion
CCCCC[C@@H]1C=C(C(=O)O)[C@H](c2ccc(C#N)cc2)N1S(=O)(=O)c1ccc(C)cc1
    4, 1, x, 9, x, x, x, 5
Cc1ccc(OCC(=O)Nc2cc(NC(=O)COc3ccc(C)cc3)cc(C(=O)O)c2)cc1
    2, 8, 0, -6, i, 7, -7, -24
COc1cc(OC)c2c(-c3ccccc3)cc(=O)oc2c1C(CCN1CCOCC1)c1ccc(N(C)C)cc1 (centres undefined)
    -4, -5, x, -2, x, x, x, -28
Clc1cccc(-c2nnc(-c3ccno3)o2)c1
    2, 2, -4, -11, i, -13, 7, -4
C1CCN2CC3CC(CN4CCCC[C@@H]34)[C@H]2C1
    5, 5, x, -17, x, x, x, -32
COC(=O)c1cc2ccsc2n1CC(=O)Nc1cc(Cl)ccc1OC
    -15, -17, 0, -16, x, -7, 65, x
Cc1ccccc1NC(=O)C(=O)NCCCN1CCCC1=O
    0, 2, x, -11, i, x, -8, 14
CC(C)(C)CC(=O)Nc1cc2c3c(c1)CCN3C(=O)CC2
    -1, 1, 27, -16, i, 30, -2, -1
CCCCN(C)CCNC(=O)Cn1ncc2c(=O)oc3ccc(C)cc3c21
    2, 6, 11, -15, i, 6, -6, 26
O=C(CNC(=O)C1CCCCC1)OCC(=O)c1ccc(Cl)s1
    2, 7, 8, -21, i, -1, -7, 4
CCC(=O)n1nc(-c2ccco2)nc1N
    3, 3, -3, -2, i, 0, -8, x
Cn1cc(CN2CCCC(C(=O)c3ccc(-c4ccccc4)cc3)C2)cn1 (centres undefined)
    2, 3, -6, -33, i, -7, 10, 23
O=C(Nc1cccc(F)c1)C1CC(=O)N(c2ccc(Br)cc2)C1 (centres undefined)
    1, -4, -14, -1, i, -2, 0, x
COc1ccccc1C(CNC(=O)CSc1ccc2ccccc2c1)N(C)C (centres undefined)
    -5, -2, 0, -1, i, -14, 1, u
O=C(CN1CCN(C2CCCCC2)CC1)Nc1ccc(Br)cc1
    3, 7, -1, x, i, 2, 36, 2
CCC/C=N/Nc1nnc(Cc2ccccc2)c(=O)[nH]1
    1, 3, 6, -28, i, -4, -1, 3
Cc1ccccc1S(=O)(=O)c1c(C)cc(-c2ccccc2)[nH]c1=O
    1, 2, -11, -11, i, -14, -1, -11
CC(Oc1cc2oc(=O)cc(-c3ccccc3)c2cc1Cl)C(=O)NCC1CCC(C(=O)O)CC1 (centres undefined)
    3, 5, 3, -11, i, 4, -19, x
CCOc1ccc(N(CC(=O)Nc2ccc(Cl)cc2)S(C)(=O)=O)cc1
    4, 2, x, -7, x, x, x, -37
COc1cccc(NC(=O)Nc2nnc(CC(=O)NCc3ccccc3)s2)c1
    -4, -9, -14, 2, i, -12, -18, 25
Cc1ncc(CSc2nnnn2-c2ccccc2)c(N)n1
    2, -2, 2, -14, i, -6, -1, x
O=C(CCCCCn1c(=S)[nH]c2ccc(N3CCOCC3)cc2c1=O)NCCc1ccccc1
    2, -2, 3, x, i, 22, 39, -1
Cc1cc(NCCCN2CCOCC2)n2nc(C)c(-c3ccccc3)c2n1
    0, 1, 9, -2, i, -4, 52, x
COc1cc(-n2ccnc2SC)c(Cl)cc1Cl
    6, 4, 0, -6, i, 7, -3, x
O=C(O)/C=C/C(=O)NCCC(c1ccccc1)c1ccccc1
    -6, -5, 6, -24, i, 2, -5, -81
COc1ccc(C(=O)N2CCC(O)(c3ccc(F)cc3)CC2)cc1OC
    -6, 3, -9, -10, i, -11, 10, -9
COc1cc(/C=C2/C(=O)NN(c3cccc(Cl)c3)C2=O)cc(OC)c1O
    -1, -4, u, -15, i, u, -3, 14
C[C@H](CO)N1C[C@H](C)[C@H](CN(C)C(=O)CCC(F)(F)F)OCc2cnnn2CCCC1=O
    0, 4, x, -10&-4, x, x, x, 16
CC(C)(C)OC(=O)N/N=C/c1ccc(N2CCOCC2)s1
    -4, 9, -5, x, i, -2, 2, -14
COC(=O)c1ccccc1NC(=O)NCC1CCCO1 (centres undefined)
    4, 6, -20, -15, x, 5, 6, -42
CCC(=O)Nc1ccccc1N1CCN(c2ccc(F)cc2)CC1
    0, -4, -3, -19, i, -8, 71, 4
CC(OC(=O)C1CCN(S(=O)(=O)c2ccc3c(c2)OCCO3)CC1)C(=O)N(C)c1ccccc1 (centres undefined)
    -2, -6, x, 1, x, x, x, 4
Cc1cccc(NC(=O)c2nc[nH]c2C(=O)N2CCc3ccccc3C2)c1
    1, 2, x, -6, x, x, 40, -6
O=C(c1ccccc1)N1CCCCC(S(=O)(=O)c2ccccc2)C1=O (centres undefined)
    0, 4, -14, -14, i, -14, -15, x
CCNC(=O)c1cccc(NC(=O)C2CC(=O)N(CCc3ccccc3)C2)c1 (centres undefined)
    5, 5, x, 4, x, x, -1, x
CC(OC(=O)c1ccc(-n2cnnn2)cc1)C(=O)N(C)c1ccccc1 (centres undefined)
    -1, 0, x, -2, x, x, x, -105
CC(=O)C1=C(C)NC(=O)CC1c1ccccc1Cl (centres undefined)
    -1, 2, 20, x, i, 6, -13, 4
CCC(=O)c1ccccc1OCCCN1C(=O)NC(C)(C)C1=O
    3, 6, -3, -16, i, -7, -3, -29
C[C@@H]1ON(C)[C@H]2C[C@H]3c4[nH]c5ccc(-c6ccc7c(c6)OCO7)cc5c4CCN3C[C@@H]12
    -5, -6, x, -12, x, x, x, 5
C=CCn1c(SCC(=O)N(C)c2c(N)n(Cc3ccccc3)c(=O)[nH]c2=O)nnc1-c1ccccc1OC
    x, x, 7, -1, i, -2, -8, 0
NC(=O)Nc1ccc(C(=O)OCC(=O)NC2CCCCC2)cc1
    0, 6, 17, x, x, -2, -15, 9
O=C(/C=C/c1ccc(F)cc1)NC(=S)NNC(=O)c1cccnc1
    3, 0, 0, -9, i, 10, 4, -7
O=C(CSc1nnc(-c2cccs2)n1-c1ccccc1)NCc1ccco1
    8, 1, -3, -18, i, 9, -18, -67
CC1=C(C(=O)Nc2ccc(C(=O)NCCCN3CCCCC3)cc2)SCCO1
    2, 3, 15, -9, i, -6, -14, -1
COc1ccc(CN(Cc2cccn2C)S(=O)(=O)c2ccc(F)cc2)cc1
    -2, -5, 10, -5, i, -6, -4, 10
Cc1ccccc1CN1CCN(CC(=O)NCc2ccco2)C1=O
    -2, -3, -3, -20, x, 1, x, x
CN(CC1COc2ccccc2O1)C(=O)CSc1nncs1 (centres undefined)
    4, 4, x, x, x, x, -9, 6
Clc1ccc(Sc2cc(Cl)c(-c3ccccc3)nn2)cc1
    3, 1, -9, -18, i, 0, 37, x
COc1ccc(Cc2nc3ccc(C(=O)N(C)C(C)c4nccs4)cc3o2)cc1 (centres undefined)
    x, x, -8, -12, i, 0, 2, -4
CCOc1ccc(C(=O)OCCN(C)C)cc1
    3, 4, 2, x, i, -5, -16, x
COc1ccccc1Cc1c(-c2ccc(C#N)cc2)nc2c(C)cc(Br)cn12
    -6, 1, x, 8, x, x, x, -31
Clc1ccc(OCc2cn3ccccc3n2)c2ncccc12
    2, 5, -1, x, i, -7, -9, -10
C=CCSc1nnc(C)c(/C=C/Nc2ccc(Cl)cc2)n1
    -24, 0, 9, -11, i, -4, 27, -10
CCn1c(SCC(=O)Nc2cc(C(C)(C)C)nn2-c2ccccc2)nnc1-c1cccs1
    -1, -5, 1, -2, i, 3, x, -14
Cc1nc2ccccc2n1CC(O)Cn1c(C(F)(F)F)nc2ccccc21 (centres undefined)
    6, 4, 1, -12, i, -4, -8, x
O=C(Nc1ccccc1O)c1cccc(NC(=O)c2ccco2)c1
    7, 4, 1, 13, x, 2, 0, 17
CCCCCCSc1cccc(-c2nc3ccc(Cl)cn3c2NCCCC)c1
    -4&3, -2&-2, x, -14, x, x, x, 12&15
O=C(OCC(=O)N1CCOCC1)c1ccc(N2CCOCC2)c([N+](=O)[O-])c1
    1, 4, 25, x, i, -1, 4, -8
N#Cc1ccc(-c2nc3ccccc3c(=O)n2O)cc1
    4, 3, 9, x, i, -4, 12, 2
O=C(CSc1nc2c(cnn2-c2ccc(F)cc2)c(=O)[nH]1)N1N=C(c2cccs2)CC1c1ccc(F)cc1 (centres undefined)
    5, -22, 2, -18, x, -1, x, -15

Additional compounds:
Values run as follows: MT1-MMP act inh, MT1-MMP act inh RFP, PABP FP inh, UUG fidelity, Rce1 inh, eIF4H FP inh, CSC inhib, HIV Env fusion
Cc1cccc(NC(=S)N(Cc2ccc(Br)cc2)Cc2ccc(C(=O)O)cc2)c1
    0, 3, 4, -27, i, 2, -2, -9
Cc1ccccc1/C=N/NC(=O)c1cccnc1
    0, 1, -12, -5, i, -15, -2, 8
CCCC(CCC(=O)Nc1ccc(C(=O)OC)cc1)C(=O)O (centres undefined)
    2, -2, 1, -15, i, 7, -11, x
CCNc1nc(NC(C)C)nc(Oc2ccc(/C=N/O)cc2)n1
    -8, 1, -10, -24, i, -6, -4, -6
O=C(Nc1cccc2ccccc12)c1csc([C@@H]2O[C@H](CO)[C@@H](O)[C@H]2O)n1
    2, 4, x, -14, x, x, x, -3
O=C(NN=C1CCCCCC1)c1cn(-c2ccccc2)nc1-c1ccccc1
    7, 12, -2, x, i, 0, 17, -25
COc1ccc(C[C@H]2CN3C(=NC[C@H]3Cc3ccccc3)N2CCNC(=O)CCC2CCCCC2)cc1
    -1, -3, -13, -8, i, 3, 30, -168
C/C(=N\NC(=O)C1(C)CC1(Br)Br)c1ccc(NC(=O)C2CCC2)cc1 (centres undefined)
    0, -3, -1, x, i, -2, 18, -120
CCOC(=O)[C@H]1[C@H]2COc3ccc(OC)cc3[C@@H]2N2C(=O)CN(Cc3ccccc3)C(=O)[C@@]12C
    -2, 1, x, -9, x, x, 7, -27
C/C(=N\NC(=O)c1nn(C)cc1Br)c1ccc(NC(=O)c2ccncc2)cc1
    -2, -2, 6, -20, i, 5, -7, x
O=C(NCc1ccccc1)N[C@@H](Cc1c[nH]c2ccccc12)C(=O)O
    -8, -13, 19, -11, i, -9, 6, -12
O=C(CCc1ccccc1)NCc1ccccc1
    -2, 5, -8, x, i, -1, -3, -9
O=C(/C=C/c1ccc2c(c1)OCO2)Nc1nc2ccccc2s1
    3, 1, 5, -15, i, -5, 67, -7
COc1ccccc1NC(=O)c1ccc(NC(=O)COC(=O)C2(C)CC2(Cl)Cl)cc1 (centres undefined)
    2, 6, -12, x, i, 3, -2, -16
CC1=C(C(N)=O)C(c2ccc(Cl)c(Cl)c2)n2ncnc2N1 (centres undefined)
    2, 5, -4, -9, i, -3, 2, 7
O=C1C2C3C=CC(C3)C2C(=O)N1c1ccc2c(c1)OCO2 (centres undefined)
    2, 5, 9, -2, i, -6, -5, x
O=C1CC[C@@H](C(=O)O)N1
    1, 3, x, 11, x, x, 4, 8
C[C@@H](C(=O)Nc1ccc2ccccc2c1)[C@H]1C[C@]1(C)[C@H](NS(=O)(=O)c1ccc(-c2ccccc2)cc1)c1ccccc1
    x, x, -1, x, x, 2, 9, -16
CCN1C(=O)N[C@@H](c2ccccc2)[C@@H](C(=O)OC)[C@H]1C
    8, 5, x, -20, i, x, 9, -26
Cc1ccc(NC(=O)CSCC(=O)Nc2ccc(S(=O)(=O)N3CCCC3)cc2)cc1
    -5, 1, x, x, i, x, -18, x
Cc1cccc(N(C)C(=O)c2cc(S(=O)(=O)N3CCCCC3)c[nH]2)c1
    -3, -2, -19, -7, i, -7, 1, 2
CCCCOc1nc(N2CCOCC2)nc(C)c1[N+](=O)[O-]
    3, -6, 2, x, i, -7, 8, 17

A portion of the library; count on the stated rates, not on these rows.
